# Screening results as filed in PubChem.
# PKD1 inh – blocks activity of human protein kinase D1; Q15139; PKD1 kinase fluorescence polarization assay; inhibition, %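 (about 10 µM by stock and volumes)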; 200,000 compounds, 0.056% hits; AID 797;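 active = inhibition of 50% or more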;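 note: controls were vehicle for no effect and a reference inhibitor for full effect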
# GALR2 ag – GALR2 (human) receptor agonism | O43603 | GALR2-expressing cells, agonist activation read-out | activation, %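 (tested at 5 µM)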 | 140,000 compounds, 0.48% hits | AID 803;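 active = above mean plus 3 SD of all compounds, about 5% in these data, not always enough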;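 note: 0% = vehicle buffer wells and 100% = reference agonist at full effect; tested in CHO reporter cells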
# Target sequence (O43603 whole entry, looked up): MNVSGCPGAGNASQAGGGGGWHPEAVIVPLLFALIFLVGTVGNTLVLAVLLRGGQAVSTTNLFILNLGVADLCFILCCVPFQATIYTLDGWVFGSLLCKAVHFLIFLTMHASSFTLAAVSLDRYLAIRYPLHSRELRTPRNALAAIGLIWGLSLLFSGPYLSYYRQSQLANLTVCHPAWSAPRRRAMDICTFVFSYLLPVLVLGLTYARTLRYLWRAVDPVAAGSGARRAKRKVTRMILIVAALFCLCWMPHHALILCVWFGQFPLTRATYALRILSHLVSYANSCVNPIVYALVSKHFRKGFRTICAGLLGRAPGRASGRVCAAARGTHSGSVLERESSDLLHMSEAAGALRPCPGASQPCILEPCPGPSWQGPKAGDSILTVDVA
# Insulin prom inh – TRM-6 insulin promoter activity inhibition; AID 1273; TRM-6 cells (human fetal islet line), insulin promoter-eGFP reporter, imaging; reporter expression induced with tamoxifen; inhibition, % at 2 µM; 130,000 compounds, 0.9% hits;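 active = inhibition above the mean plus 3 SD, with well images judged a real hit on visual review, cut at about 60% in these data, passing the limit was not always enough; inconclusive = inhibition over the cutoff but images rejected on review; inactive = inhibition not above the cutoff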
# HSV augment – HSV replication enhancement. HSV replication augmentation in cells, fold increase. maximum fold increase. 220,000 compounds, 0.005% hits. AID 1956;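 active = peak rise of 1.5-fold or more in the series; inconclusive = self-fluorescent or not available for retest; tested in PC3 cells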;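 note: first round at 10 µM; read as green reporter fluorescence; hits show the peak of a series up to 25 µM; 1 = signal of infected wells without compound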
# RGS16-Gao – modulates binding between human RGS16 and Galphao; 220,000 compounds, 0.38% hits; O15492+P09471; bead-based flow cytometry RGS16-Galphao binding, fluorescence; actives lie on both sides; AID 1441; binding response (% of control), % at 10 µM;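 active = below 25% or above 175%, edge rows of some plates excepted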;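 note: Galphao activated by GDP with aluminum fluoride before binding; 100% = wells without compound and 0% = beads without RGS; some results beyond the cut were filed as inactive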
# Target sequence (O15492 whole entry, looked up): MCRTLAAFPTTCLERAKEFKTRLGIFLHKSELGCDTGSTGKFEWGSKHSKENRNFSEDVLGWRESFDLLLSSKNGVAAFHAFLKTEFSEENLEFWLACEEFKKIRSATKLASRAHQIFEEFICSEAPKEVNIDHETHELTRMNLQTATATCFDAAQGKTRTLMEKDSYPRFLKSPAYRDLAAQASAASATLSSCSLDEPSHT
# Target sequence (P09471 whole entry, looked up): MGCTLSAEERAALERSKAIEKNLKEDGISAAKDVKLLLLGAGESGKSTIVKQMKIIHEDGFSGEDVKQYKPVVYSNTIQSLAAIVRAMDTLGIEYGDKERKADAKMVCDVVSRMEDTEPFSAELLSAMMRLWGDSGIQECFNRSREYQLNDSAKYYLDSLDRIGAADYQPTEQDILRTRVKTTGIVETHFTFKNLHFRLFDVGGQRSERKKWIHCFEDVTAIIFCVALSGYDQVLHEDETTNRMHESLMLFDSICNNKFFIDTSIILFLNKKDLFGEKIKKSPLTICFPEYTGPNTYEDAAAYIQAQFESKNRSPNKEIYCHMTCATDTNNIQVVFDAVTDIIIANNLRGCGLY
# Insulin prom inh cell count – also measured in Insulin prom inh; calls as there; normalized cell count, %; measured here: cell count, toxicity; reference of the scale not given here;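 cells exposed to compound for 48 h; stained nuclei by imaging scaled within each plate; lower means fewer cells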
# HSV augment primary fold – also measured in HSV augment; calls as there; fold increase; compound at 10 µM; measured here: primary screen fold increase 10 uM; tested in PC3 cells;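 GFP signal in the first replicate; 1 = infected wells without compound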
# Active calls of the source: *; i = inactive; ? = inconclusive; / = no result given.
item	molecule	HSV augment	RGS16-Gao	HSV augment primary fold	Insulin prom inh cell count
1	O=C(Nc1ccc(Cl)cc1)C1=Cc2cc(Cl)ccc2OC1	i	101.9	0.92	/
2	COc1ccc(-c2cc3c(nn2)-c2ccccc2C3=O)cc1	i	102.6	1	139.1
3	CCOC(CNC(=O)c1cccn2c(=O)c3cc(Cl)ccc3nc12)OCC	i	54.3	0.82	127.0
4	Cc1ccc(S(=O)(=O)N2CC=C(c3c(C)n(C)c4ccccc34)CC2)cc1	?	101.7	/	62.0
5	O=c1cnnc(Nc2ccccc2)[nH]1	i	100.4	0.66	/
6	CCOC(=O)C1=C(C)N(CC)C(=S)NC1c1ccc(Cl)cc1 (centres undefined)	i	92.9	1.2	/
7	NC(=O)CC(NC(=O)Cc1ccc(Br)cc1)c1ccc(NC2CCCC2)c([N+](=O)[O-])c1 (centres undefined)	i	108.0	0.87	/
8	Cc1cc(C)c2cc(CN(Cc3ccco3)C(=S)NCC3CCCO3)c(=O)[nH]c2c1 (centres undefined)	i	105.7	0.96	/
9	CCCC[n+]1c(-c2ccc(Cl)cc2Cl)csc1Nc1ccccc1	i	99.4	1.28	/
10	Nn1c(SCc2ccccc2)nnc1-c1ccco1	i	107.2	0.97	/
11	O=C(CSCc1ccc([N+](=O)[O-])cc1)NC1CCCCCC1	i	100.0	1.01	121.8
12	CC(=O)c1cccc(NC(=O)Cn2c(=O)oc3cc(S(=O)(=O)N4CCCC4)ccc32)c1	i	91.4	0.89	/
13	COc1cc(OC)cc(-n2nnnc2SCC(=O)Nc2ccc(C(C)=O)cc2)c1	i	117.6	0.89	/
14	COc1ccc(NC(=O)Cn2nc(Cc3cccnc3)c3ccccc3c2=O)cc1OC	i	102.7	0.87	/
15	COc1ccccc1Nc1nc(-c2c(C)[nH]c3ccccc23)cs1	i	109.0	1.07	116.1

item	GALR2 ag	Insulin prom inh	PKD1 inh
1	-0.5	/	-4.5
2	/	14.3	2.7
3	-1.8	26.8	1.4
4	-1.4	0.0	-10.3
5	/	/	7.1
6	-0.1	/	0.2
7	/	/	/
8	/	/	-2.8
9	-1.6	/	1.1
10	-2.8	/	0.0
11	/	-23.5	-4.0
12	/	/	/
13	-0.8	/	-5.4
14	-0.5	/	-3.7
15	2.4	-30.0	1.4

# Next part, starting with the last two of the part before.
item	molecule	HSV augment	RGS16-Gao	HSV augment primary fold	Insulin prom inh cell count
14	COc1ccc(NC(=O)Cn2nc(Cc3cccnc3)c3ccccc3c2=O)cc1OC	i	102.7	0.87	/
15	COc1ccccc1Nc1nc(-c2c(C)[nH]c3ccccc23)cs1	i	109.0	1.07	116.1
16	CC(=O)c1cc(C(=O)Nc2ccc(C(=O)O)cc2)oc1C	i	99.4	0.9	76.7
17	Cc1ccc(S(=O)(=O)N2CCN(c3ccccn3)CC2)cc1	i	97.2	1.06	/
18	CCN1CC(CN(C)Cc2nc(-c3ccc(C(F)(F)F)cc3)no2)CC1=O (centres undefined)	i	101.5	0.93	/
19	O=C(Nc1cccc(S(=O)(=O)N2CCOCC2)c1)c1c2c(nc3ccccc13)CCC2	i	96.0	1.07	73.2
20	COc1ccc(NS(=O)(=O)c2cccc(C(=O)N/N=C/c3cccs3)c2)cc1	i	95.1	0.83	92.3
21	CNc1nc(C)c(C#N)cc1C(C)=O	i	91.8	0.93	102.8
22	CC(OC(=O)c1ccc(O)cc1)C(=O)Nc1cc(C(F)(F)F)ccc1Cl (centres undefined)	i	101.0	0.88	/
23	CN(Cc1nc(-c2ccccn2)no1)S(=O)(=O)c1ccc(Cl)cc1	i	99.1	1.05	84.8
24	CC(=O)N(c1cccc(C)c1)C1SC(=O)N(c2ccccc2)C1=O (centres undefined)	i	105.3	1	92.0
25	CCOC(=O)N1CCN(C(=O)CN(c2cccc(C)c2)S(=O)(=O)c2ccc(C)cc2)CC1	i	103.1	1.2	82.9
26	C=CCSc1nc2ccccc2c2nc(-c3ccccc3)nn12	i	103.7	0.86	113.2
27	CCOC(=O)Cc1csc(NC(=O)c2cccc(N3C(=O)CCC3=O)c2)n1	i	101.2	0.91	/
28	CC1CCN(c2c(NCC3CCC(C(=O)Nc4ccccn4)CC3)c(=O)c2=O)CC1 (centres undefined)	/	99.0	/	94.5
29	CCc1cc2c(SCC(=O)c3ccc(C)cc3)ncnc2s1	i	85.5	0.923	118.4
30	COc1ccc(NC(=O)C(NC(=O)c2ccccc2)C(C)C)cc1 (centres undefined)	i	110.4	0.85	271.0

item	GALR2 ag	Insulin prom inh	PKD1 inh
14	-0.5	/	-3.7
15	2.4	-30.0	1.4
16	-1.5	3.7	3.9
17	/	/	/
18	/	/	1.2
19	-1.7	15.4	4.5
20	-1.9	27.3	-4.8
21	0.2	-55.3	5.6
22	/	/	/
23	-2.2	-26.0	-5.7
24	-1.0	7.1	1.5
25	-0.6	-15.8	-8.2
26	-0.7	-5.1	-9.4
27	-1.7	/	-1.3
28	-0.6	-35.0	-6.9
29	-2.9	-86.7	-12.8
30	-0.2	-25.0	-8.4

# Continued:
item	molecule	HSV augment	RGS16-Gao	HSV augment primary fold	Insulin prom inh cell count
31	O=C(/C=C/c1cccs1)c1cc(Cl)ccc1O	i	102.0	0.9	/
32	Nc1nnc(CCCCCCCCCCc2nnc(N)s2)s1	i	97.3	0.94	/
33	CCc1ccc(NC(=O)COc2ccc(F)cc2C(=O)c2cnn(-c3ccccc3)c2)cc1	i	104.0	0.92	/
34	CCOCCCNC(=O)CCSc1ccc(C)cc1	i	87.8	0.87	115.2
35	O=C(O)Cc1ccc(NC(=O)c2cccs2)cc1	i	102.7	1.1	198.4
36	CCOCCOC(=O)c1ccc(-n2cnc(C)n2)nc1	i	104.5	1.05	/
37	COc1ccc(-c2cc(CN3C(=O)c4ccccc4C3=O)on2)cc1	i	/	1.03	/
38	COc1ccc(-c2nc3cc(C)ccn3c2NCC2CCCO2)cc1OC (centres undefined)	i	/	0.89	119.4
39	COc1ccccc1NC(=O)c1c(NC(=O)CCC(=O)O)sc2c1CCCCC2	i	97.5	1.42	/
40	CCOC(=O)c1c(-c2ccc(C)o2)csc1NC(=O)CSc1nnnn1-c1ccccc1	i	95.1	0.93	120.1
41	O=c1cc(-c2ccco2)oc2c1ccc1ccccc12	i	100.4	0.72	85.0
42	CCOC(=O)c1ccc(N/C=C/C(=O)c2ccc(OC)c(OC)c2)cc1	i	100.5	1.03	89.2
43	CC(C)CC(=O)N1CCN(c2ccc([N+](=O)[O-])c(NCc3ccccc3)c2)CC1	/	/	/	114.4
44	NC(=S)N/N=C\c1ccccc1OCc1ccccc1	i	99.3	0.76	/
45	O=C(O)c1cccc(S(=O)(=O)Nc2ccc([N+](=O)[O-])cc2O)c1	i	100.6	1.03	/

item	GALR2 ag	Insulin prom inh	PKD1 inh
31	/	/	-3.6
32	/	/	3.5
33	-0.5	/	-1.8
34	-0.3	60.0	-3.5
35	-2.6	-19.4	-4.2
36	/	/	3.1
37	-1.3	/	-6.2
38	-1.7	59.1	0.8
39	/	/	/
40	-2.3	-6.1	-2.9
41	-0.8	0.0	-4.0
42	0.5	-3.9	7.0
43	-2.5	-14.8	2.7
44	-1.4	/	-3.9
45	/	/	/

# Next part.
item	molecule	HSV augment	RGS16-Gao	HSV augment primary fold	Insulin prom inh cell count
46	CCOc1ccc(CCN2C(=O)CCC2(C)C(=O)NC(C)CC)cc1OCC (centres undefined)	i	104.0	1.22	115.8
47	CCCCN(C(=O)NC(=O)Nc1cc(C)ccc1C)S(C)(=O)=O	i	97.6	0.8	/
48	CCOC(=O)c1c[nH]n(-c2ccc(C)cc2)c1=O	i	94.9	0.94	/
49	COc1ccc2nc(SCC(=O)Nc3nccs3)[nH]c2c1	i	148.8	0.97	/
50	CC1OC(OCC2OC(Oc3c(-c4ccc(O)cc4)oc4cc(O)cc(O)c4c3=O)C(O)C(O)C2O)C(O)C(O)C1O (centres undefined)	i	100.4	0.78	/
51	CCn1c(SCC(=O)Nc2nc(C)c(C(=O)OC)s2)nnc1C(C)C	i	103.5	1.05	/
52	O=[N+]([O-])c1ccc(N2CCN(c3ccc(Cl)nn3)CC2)c(Cl)c1	i	89.2	0.86	64.0
53	O=C(CSc1nnc(Cn2c(=O)sc3ccccc32)n1-c1ccccc1)NCc1ccco1	i	101.7	1.08	/
54	Cc1ccc(CNC(=O)Cn2c(=O)c3sccc3n(Cc3cccc([N+](=O)[O-])c3)c2=O)cc1	i	103.0	0.98	141.8
55	CCNC(=O)NC(=O)CSc1nc2ccccc2n1CC(C)C	i	86.4	0.9	168.0
56	CCN(CC)CCCN=Cc1c(O)n(-c2ccccc2C)c(=O)c2ccccc12	i	98.3	0.77	/
57	Cc1cccn2cc(-c3ccc(F)cc3)nc12	i	91.3	0.79	/
58	CC(O)C(O)C(O)C(O)C1NCCS1 (centres undefined)	i	97.8	0.99	95.7
59	CCOC(=O)N1CCN(CC(O)COC2CC(C)CC(C)(C)C2)CC1 (centres undefined)	i	96.2	0.95	84.2
60	COc1ccc(C)c(S(=O)(=O)Nc2ccc(OCC(=O)O)cc2)c1	i	99.4	0.98	/

item	GALR2 ag	Insulin prom inh	PKD1 inh
46	-0.8	0.0	-2.3
47	-1.9	/	-3.0
48	/	/	-3.4
49	/	/	-1.3
50	/	/	-5.1
51	-1.9	/	-13.5
52	-2.6	20.0	5.9
53	-0.3	/	-10.3
54	0.5	-43.3	-3.0
55	-2.5	-2.9	12.9
56	/	/	/
57	-2.8	/	-5.7
58	-1.3	61.1	-9.5
59	-3.0	-93.5	-3.9
60	-1.3	/	-5.6

# Another view of some results above:
No. | SMILES | HSV augment | RGS16-Gao | HSV augment primary fold | Insulin prom inh cell count | GALR2 ag | Insulin prom inh | PKD1 inh
58 | CC(O)C(O)C(O)C(O)C1NCCS1 (centres undefined) | i | 97.8 | 0.99 | 95.7 | -1.3 | 61.1 | -9.5
57 | Cc1cccn2cc(-c3ccc(F)cc3)nc12 | i | 91.3 | 0.79 | / | -2.8 | / | -5.7
53 | O=C(CSc1nnc(Cn2c(=O)sc3ccccc32)n1-c1ccccc1)NCc1ccco1 | i | 101.7 | 1.08 | / | -0.3 | / | -10.3

# The results go on.
item	molecule	HSV augment	RGS16-Gao	HSV augment primary fold	Insulin prom inh cell count
61	Cc1cc(C)nc(SCc2cn3cc(Cl)ccc3n2)n1	i	93.4	0.9	84.9
62	Cn1c(SCC(=O)n2c3c(c4ccccc42)CCCC3)nnc1-c1ccccc1	i	105.0	0.79	129.1
63	O=C(CSc1ncn(-c2ccccc2)n1)Nc1ccc(Br)cn1	i	98.6	0.88	127.8
64	COc1ccc2[nH]c(C(=O)O)c(CCN3C(=O)c4cccc([N+](=O)[O-])c4C3=O)c2c1	i	93.6	1.08	/
65	COCCn1c(=S)[nH]c2cc(C(=O)NCCc3ccc(OC)c(OC)c3)ccc2c1=O	i	103.3	0.83	183.2
66	Cn1c2c(c(=O)n(C)c1=O)C(c1ccccc1Cl)C(C#N)=C(N)O2 (centres undefined)	i	97.5	0.98	/
67	O=C(COC(=O)c1cc(=O)[nH]c2ccccc12)Nc1nc(-c2cccc(Br)c2)cs1	i	120.3	1.1	41.9
68	COc1ccc2[nH]c(C(O)(Cc3cccnc3)Cc3cccnc3)cc2c1	i	108.5	1.05	121.5
69	COc1ccccc1C(=O)NCCNC(=O)c1ccco1	i	104.3	0.82	35.9
70	CC1(C)CC(N(Cc2ccc(F)cc2)C(=O)c2ccc(F)cc2)CCO1 (centres undefined)	i	103.1	1.02	/
71	Cn1c(=O)c(C(=O)CN2CCOCC2)c(N)n(Cc2ccccc2)c1=O	i	103.4	1.12	101.2
72	O=C(CN1C(=O)C2C3CCC(C3)C2C1=O)N1CCN(Cc2ccccc2)CC1 (centres undefined)	i	104.8	1.09	83.1

item	GALR2 ag	Insulin prom inh	PKD1 inh
61	-0.4	-39.3	-1.8
62	-0.6	23.3	-1.9
63	-0.5	25.0	5.1
64	/	/	/
65	-1.1	-7.9	-8.5
66	/	/	/
67	-1.1	-29.7	-11.3
68	-0.3	6.1	8.1
69	0.5	7.9	-1.2
70	/	/	/
71	-1.8	20.0	-0.4
72	/	-16.7	6.4

# A second format for part of the listing above.
no.	SMILES	HSV augment	RGS16-Gao	HSV augment primary fold	Insulin prom inh cell count	GALR2 ag	Insulin prom inh	PKD1 inh
64	COc1ccc2[nH]c(C(=O)O)c(CCN3C(=O)c4cccc([N+](=O)[O-])c4C3=O)c2c1	i	93.6	1.08	/	/	/	/
65	COCCn1c(=S)[nH]c2cc(C(=O)NCCc3ccc(OC)c(OC)c3)ccc2c1=O	i	103.3	0.83	183.2	-1.1	-7.9	-8.5
